Sa RN4220 lethal: S. aureus RN4220 growth inhibition. AID 1259311. OD600, 16 h. 330,000 compounds, 0.33% hits. inhibition, % (concentration not given with the values);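 active means z-score of -3 or lower and OD600 up to 0.18 on both plates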;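 further: plate controls were untreated cells for no effect and reference antibiotic for full effect; stock transfer was 100 nL into about 80 µL; one replicate is shown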
Mtb hypoxia inh: inhibitors of hypoxia-regulated fluorescent reporter in Mycobacterium tuberculosis. M. tuberculosis hypoxia-regulated fluorescent reporter, fluorescence. fluorescence inhibition, % (concentration not given with the values). 300,000 compounds, 0.1% hits. AID 1159583;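 active means 35 to 45% if threefold the growth effect, above 45% if 1.5-fold the growth effect; inactive means the rest, general growth blockers included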;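 further: wells of about 50 µL received 100 nL stock; 0% = vehicle wells and 100% = reference inhibitor wells; whole bacteria with a GFP reporter of the hypoxia response; strong numbers were not always called active; many hits fall short of the cut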
PrP 5UTR inh: suppresses PrP 5' UTR mRNA reporter expression. cell-based PrP 5' UTR mRNA reporter, plate reader. inhibition, % (test concentration not listed). 340,000 compounds, 0.35% hits. AID 488862;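 active means every replicate at 50% or more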;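 further: 0 = median of the neutral control wells; tested in H4 reporter cells; numbers are from one replicate; inactives centre near -14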
ugtP null kill: kills S. aureus RN4220 lacking UgtP. AID 1259309. S. aureus RN4220 ugtP deletion, OD600 growth, 16 h; some inactives read as strong as hits. 330,000 compounds, 0.54% hits. growth inhibition, % (no concentration beside the values);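 active means z-score under -3 and OD600 up to 0.15 on both plates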;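 further: plate controls were untreated wells for no effect and antibiotic for full effect; wells of about 80 µL received 100 nL stock; the first replicate is given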
BJeLR viability: BJeLR cell viability loss; inhibition, % (concentration not given with the values); BJeLR (HRASV12) viability, CellTiter-Glo ATP luminescence, 48 h; reference of the scale not given here; 300,000 compounds, 0.17% hits;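 active means replicate mean above 50%; inconclusive means above 50% but judged a plate artefact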;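 further: 50 nL library stock added to about 25 µL; numbers are from one replicate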
Autofluor counter: compound fluorescence in toxin protease inhibitor counterscreen | fluorescence intensity (concentration not given with the values) | compound autofluorescence counterscreen, microsphere flow cytometry; active compounds read high | AID 624483 | 360,000 compounds, 3.1% hits;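 active means at least 3 SD above the mean of all compounds, about 16000 in these data; inconclusive means too few beads counted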;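 further: 100 nL of 1 mM stock went into each well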
Mtb hypoxia inh growth: second read-out of Mtb hypoxia inh, no call of its own (marks repeat the call); growth inhibition, %; measured here: M. tuberculosis growth (absorbance);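 0% = vehicle and 100% = reference antibiotic; read after six days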
* hit, by the source's call; ? = inconclusive; . = not tested or not shown. Compounds were not picked by outcome; any-hit rate near 4%.

SMILES	Sa RN4220 lethal	Mtb hypoxia inh	Mtb hypoxia inh growth	PrP 5UTR inh	ugtP null kill	BJeLR viability	Autofluor counter
Cc1ccc(NC(=O)COC(=O)/C=C/c2c(C)nn(-c3ccc(F)cc3)c2Cl)cc1F	1.0	5.9	3.6	5.1	-4.6	0.9	2531
COC(=O)CC1COc2ccccc2N1C(=O)/C=C/c1ccccc1 (centres undefined)	4.1	14.7	1.1	0.4	4.4	-4.7	3369
CCOC(=O)C1=C(CC)Nc2ccccc2N/C1=N\S(=O)(=O)c1ccccc1F	9.2	10.4	-3.2	-9.8	-7.3	.	4166
CC(=O)CSc1nnc2c3ccccc3nc(C(C)(C)C)n12	4.0	10.2	2.5	-5.4	4.3	-0.9	3275
CC1CCN(C(=O)Cn2ncc3c4ccccc4n(C)c3c2=O)CC1	1.9	8.9	-0.7	-5.0	-2.3	2.2	4931
O=C(O)c1cc(NN=C2CC(c3ccccc3)Oc3ccccc32)ccc1Cl (centres undefined)	6.9	3.1	6.5	.	-16.9	.	.
CNC(=O)[C@@]1(C)C=CC(Cc2ccccc2)N1C(=O)OC (some centres undefined)	5.5	3.8	13.0	.	-0.6	.	.
C[C@H](CO)N1C[C@H](C)[C@@H](CN(C)S(=O)(=O)c2cccs2)Oc2ccc(NC(=O)c3ccncc3)cc2C1=O	-10.6	5.1	6.1	-26.2	-6.7	.	3626
Cc1cc[n+](-c2ccccc2)c2ccccc12	10.8	4.3	9.9	0.7	2.4	0.5	3577
COc1cccc(NS(=O)(=O)c2nc3nc(C)cc(C)n3n2)c1	2.7	.	.	-15.0	9.4	8.1	4546
Cc1cc(C(=O)COC(=O)Cc2n[nH]c(=O)c3ccccc23)c(C)n1-c1ccc2c(c1)OCO2	0.3	-3.2	-1.3	-34.5	-0.3	1.5	2207
Cc1ccccc1OCCN1CCC(Cc2ccccc2)CC1	-4.7	-1.4	15.9	-14.4	-13.5	4.1	3691
Cc1cc(C(=O)CC#N)c(C)n1-c1ccc(OC(F)F)cc1	5.1	6.1	12.4	-14.8	-1.0	-2.7	2491
Cc1c(N=Cc2ccco2)c(=O)n(-c2ccccc2)n1C	2.9	.	.	-10.5	-7.0	-4.9	2609
O=C(C1=C[C@H](C2CC2)C[C@H](OCCCCO)O1)N1CCOCC1	.	.	.	8.1	.	-3.2	2825
Cc1ccsc1C(=O)OCC(=O)N1CC(C)CC(C)C1 (centres undefined)	4.0	9.4	8.4	-19.6	3.6	.	3869
CCCN=C(C)C1=C(O)c2ccccc2C1=O	3.5	8.2	-8.8	-40.4	7.0	-6.1	2141
COC(=O)C1CCN(C(=O)c2ccc(OC)c(S(=O)(=O)N3CCCc4ccccc43)c2)CC1	5.0	11.4	3.8	-26.8	-1.9	.	3814
O=[N+]([O-])c1cccc(/C=N/Nc2ccccn2)c1	.	.	.	-64.5	.	4.8	1964
COC(=O)CCC(=O)c1oc2ccc(Br)cc2c1N	0.9	-8.6	4.5	-21.0	-25.9	13.9	16549*
O=S(=O)(NCCCc1ccccc1)c1ccccc1	1.4	.	.	-7.8	-0.7	5.4	2704
COc1cc([N+](=O)[O-])ccc1NC(=O)/C=C\C(=O)O	2.5	10.9	6.3	-16.0	3.0	-2.2	3295
COc1ccc(CNC(=O)COc2cccnc2[N+](=O)[O-])cc1	2.5	-8.6	-4.9	-16.5	6.4	4.8	3712
COc1ccc(C(NC(=O)c2ccc(F)cc2)c2ccccc2)cc1 (centres undefined)	19.3	5.2	2.9	-12.8	2.5	4.2	1998
COc1ccc(C(CNC(=O)c2cccc(NS(=O)(=O)c3ccc(Br)cc3)c2)N(C)C)cc1 (centres undefined)	-0.7	4.4	10.3	-15.2	-12.3	2.4	?
Cc1cc(C)c[n+](CC(=O)c2ccc(C)c([N+](=O)[O-])c2)c1	4.1	-10.0	0.5	-5.6	2.2	-13.9	3876
COc1ccc(-c2nc(C3CCCCC3)c3cc(OC)ccc3n2)cc1	-9.8	2.3	1.2	-0.6	9.3	-0.3	3713
CCN(CC)CCNC(=O)c1ccc(-n2c(C)cc3c2CCCC3=O)cc1	8.8	12.4	-0.3	-4.5	2.8	-10.9	3574
O=C1CCC(OCc2ccccc2)CCN1CCC(Sc1ccccc1)c1ccccc1 (centres undefined)	0.4	11.5	9.4	.	-20.5	.	.
COC(=O)c1ccc(CSc2ncnc3c2oc2ccccc23)o1	2.1	3.8	5.0	-20.2	-13.9	-1.3	9434
CC(C)CN1C(=O)c2ccc(NC(=O)Cc3ccccc3)cc2C1=O	-0.4	7.3	4.6	-19.3	-15.0	0.8	4307
CC(Sc1nnnn1C)C(=O)Nc1nc(-c2ccc(F)c(F)c2)cs1 (centres undefined)	3.6	6.1	-0.8	-15.7	-1.3	.	9559
CCOC(=O)C1C(=O)CC(C)(O)C(C(=O)OCC)C1c1ccc(NC(C)=O)cc1 (centres undefined)	4.0	12.3	-0.9	0.6	0.1	-2.4	2424
CN1C(=O)NC(c2ccccc2)C2=C1CN(Cc1ccco1)C2=O (centres undefined)	1.8	-3.8	4.3	3.3	5.6	3.1	4276
Cc1[nH]c2ccccc2c1/C=N/NC(=O)c1cccc(F)c1	.	.	.	-25.6	.	-2.7	3335
O=C(Cc1cccs1)N(Cc1cccs1)C1(C(=O)NC2CCCCC2)CCCCC1	-4.9	7.5	12.4	-16.8	-17.7	5.1	9635
Cn1c(=O)oc2cc(S(=O)(=O)N3CCCCC3)ccc21	.	.	.	-0.8	.	4.0	4345
COc1ccc(NC(=O)N2CCCC(c3nc(-c4ccc(F)cc4)no3)C2)cc1 (centres undefined)	6.3	9.7	4.6	-31.7	3.1	.	5063
Cc1cccc(NC(=S)c2nc3ccccc3s2)c1	-6.0	.	.	-73.3	32.6	8.6	2597
O=C(NCCc1ccc(F)cc1)c1ccc(Cl)c(S(=O)(=O)N2CCOCC2)c1	6.0	-6.5	1.1	-9.0	8.6	.	7974
CC1(c2nnc(Cc3ccccc3)o2)CC(c2cccc(Cl)c2)=NO1 (centres undefined)	5.6	1.3	-7.1	-26.6	6.9	-11.8	4214
COc1cc(CC(=O)OCC(=O)Nc2ccccc2C#N)cc(OC)c1OC	1.5	6.1	-6.9	-19.7	10.3	.	6670
COc1cccc(CNC(=O)c2ccc(C3SCCS3)cc2)c1	2.3	16.3	3.9	-5.8	5.9	-7.1	5075
C=CCC[C@@H](Cc1ccc(F)cc1)C(=O)OCCNC(=O)[C@H](CC=C)CC(=O)NCCO	4.0	-8.2	5.2	-15.9	1.1	.	3687
O=S1(=O)CCN(Cc2cccc(C(F)(F)F)c2)CC1	1.3	16.3	11.6	-11.2	5.3	-2.3	4208
O=C(Nc1ccc(Nc2ccccc2)cc1)c1ccccc1F	4.6	5.9	-1.5	-59.6	6.8	-8.2	3584
CCCCCCSc1ccc([C@@H]2[C@H]3C(=O)N(C)C(=O)[C@H]3[C@]3(C(=O)OC)CCCCN23)cc1	.	.	.	-10.7	.	-5.9	5698
C[C@]12CC[C@H](O)CC1=CC(=O)C1C2CC[C@]2(C)C(=O)[C@H](O)CC12 (some centres undefined)	0.2	4.2	5.2	-30.5	-0.1	.	3897
O=C(NCc1ccco1)c1cc(-c2ccccc2)c(N2CCOCC2)s1	3.4	.	.	-20.0	4.2	-3.9	3802
COC(=O)c1onc(-c2c(Cl)cccc2Cl)c1C(=O)OC	2.3	9.5	11.4	-17.2	13.1	-5.6	.
Continued.
SMILES	Sa RN4220 lethal	Mtb hypoxia inh	Mtb hypoxia inh growth	PrP 5UTR inh	ugtP null kill	BJeLR viability	Autofluor counter
O=C(NC(=S)N1CCN(c2ccccc2)CC1)c1ccco1	3.2	8.4	2.5	-26.8	1.9	.	.
COC(=O)COc1c(/C=C\c2nc(O)c([N+](=O)[O-])c(=O)[nH]2)cccc1OC	4.2	0.3	-1.0	-27.3	4.4	-5.9	3989
CCOC(=O)C1CCCN(C(=O)Cn2cnc3c2c(=O)n(C)c(=O)n3C)C1 (centres undefined)	3.5	-3.8	2.9	-14.9	-2.3	-1.4	9246
CCOC(=O)c1c(-c2ccccc2)csc1NC(=O)CCN1CCOCC1	8.3	14.9	6.2	-71.0	-0.5	7.8	2371
CCc1cc2c(NCCC(=O)O)nc(C)nc2s1	7.2	7.4	4.8	-23.8	-7.4	-0.8	9593
Cc1cc(/C=N/NS(=O)(=O)c2ccc(F)c(Cl)c2)no1	.	.	.	-12.4	.	-15.7	4357
COCCCC1CCN(C(=O)C2CCC(=O)N(CCc3cccc(F)c3)C2)CC1 (centres undefined)	2.7	8.2	-0.1	-5.7	3.3	-8.1	?
Cc1ccc(C(=O)N2CCN3C(=O)c4ccccc4C23c2ccccc2)cc1 (centres undefined)	1.3	-5.3	9.8	-13.2	5.5	-8.5	4864
CC(=O)Nc1ccc2nc(SCC(=O)NCCOc3ccccc3)sc2c1	0.5	3.0	1.1	-3.2	4.8	-1.5	5059
NS(=O)(=O)c1cccc(NC(=O)COC(=O)C2CCN(S(=O)(=O)c3cccs3)CC2)c1	2.0	7.1	7.8	-4.0	4.4	1.8	4378

Four compounds already listed, sorted by count of non-hydrogen atoms, lowest first.
SMILES	Sa RN4220 lethal	Mtb hypoxia inh	Mtb hypoxia inh growth	PrP 5UTR inh	ugtP null kill	BJeLR viability	Autofluor counter
COC(=O)CC1COc2ccccc2N1C(=O)/C=C/c1ccccc1 (centres undefined)	4.1	14.7	1.1	0.4	4.4	-4.7	3369
CCN(CC)CCNC(=O)c1ccc(-n2c(C)cc3c2CCCC3=O)cc1	8.8	12.4	-0.3	-4.5	2.8	-10.9	3574
COc1ccc(C(CNC(=O)c2cccc(NS(=O)(=O)c3ccc(Br)cc3)c2)N(C)C)cc1 (centres undefined)	-0.7	4.4	10.3	-15.2	-12.3	2.4	?
Cc1cc(C(=O)COC(=O)Cc2n[nH]c(=O)c3ccccc23)c(C)n1-c1ccc2c(c1)OCO2	0.3	-3.2	-1.3	-34.5	-0.3	1.5	2207

(more compounds)
SMILES	Sa RN4220 lethal	Mtb hypoxia inh	Mtb hypoxia inh growth	PrP 5UTR inh	ugtP null kill	BJeLR viability	Autofluor counter
CSCC[C@H](NC(=O)c1cccc(S(=O)(=O)N2CCCCC2)c1)c1nc2ccccc2[nH]1	4.5	7.5	2.0	-31.7	9.1	.	3686
CC(=O)NC(Cc1ccccc1F)C(=O)NC1CCN(S(=O)(=O)c2ccccc2)CC1 (centres undefined)	1.1	-9.5	-4.8	2.4	10.8	-6.5	5683
COc1ccc(-c2c(C)c3ccc(O)cc3oc2=O)cc1	.	.	.	-21.4	.	1.0	4833
C=CCn1c(SCC(=O)N2CCN(c3ccc(F)cc3)CC2)nnc1-c1ccco1	2.3	.	.	-60.5	12.4	-1.2	5749
COc1ccccc1N1CCN(CCCCOc2ccc(C)cc2C)CC1	-0.2	-3.5	-1.0	-15.1	7.5	-7.6	3441
CCNS(=O)(=O)c1ccc(NC(=O)Nc2ccccc2OC)cc1	-1.9	4.1	15.9	-24.0	2.3	0.6	4064
CN1CCN(C(=O)c2ccccc2NC(=O)Cc2ccccc2)CC1	-3.5	.	.	-9.0	2.0	-0.6	4696
Cc1ccc(OCC(=O)NN=Cc2cccn2C)c([N+](=O)[O-])c1	1.7	11.4	0.6	.	-1.4	.	.
COc1cccc(N2CCN(C(=O)c3ccc(CS(=O)c4ccccc4Cl)o3)CC2)c1 (centres undefined)	.	.	.	35.1	.	45.7	5468
C=CCc1cccc(/C=N/NC(=O)COc2ccc(-n3cnnn3)cc2)c1O	.	.	.	-21.8	.	-3.6	5561
COc1ccc2cc(S(=O)(=O)N3CCCC(C)C3)ccc2c1 (centres undefined)	.	.	.	9.9	.	0.3	3409
CN(C)C(C)(C)C#CCCCCC#CC(C)(C)N(C)C	1.7	7.5	4.6	-10.8	-2.1	.	8442
CC(C(=O)NCc1ccco1)n1cc([N+](=O)[O-])cn1 (centres undefined)	1.1	8.3	4.6	-11.1	-1.0	-11.0	4087
O=C(/C=C/c1ccccc1Cl)NCc1cccs1	4.2	25.3	33.0	-91.9	-6.5	7.3	2461
CCc1ccc(NC(=O)C(=O)NCCN2CCN(Cc3ccc([N+](=O)[O-])cc3)CC2)cc1	3.3	-2.2	3.2	-6.5	0.6	2.9	2373

Among those listed so far, these have a cyano group:
SMILES	Sa RN4220 lethal	Mtb hypoxia inh	Mtb hypoxia inh growth	PrP 5UTR inh	ugtP null kill	BJeLR viability	Autofluor counter
Cc1cc(C(=O)CC#N)c(C)n1-c1ccc(OC(F)F)cc1	5.1	6.1	12.4	-14.8	-1.0	-2.7	2491
COc1cc(CC(=O)OCC(=O)Nc2ccccc2C#N)cc(OC)c1OC	1.5	6.1	-6.9	-19.7	10.3	.	6670

Source: PubChem (several laboratories)
